RGS16-Gao: modulators of RGS16 binding to Galphao, primary screen, biochemical, human proteins, multiplexed bead flow cytometry. Regulator of G-protein signaling 16 (Homo sapiens) + Guanine nucleotide-binding protein …. bead-based flow cytometry RGS16-Galphao binding, fluorescence; actives lie on both sides. binding response (% of control), % at 10 µM. hit rate 0.38% among 220,000;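 active means below 25% or above 175%, edge rows of some plates excepted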;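 further: Galphao activated by GDP with aluminum fluoride before binding; 100% = wells without compound and 0% = beads without RGS; some results beyond the cut were filed as inactive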
Target sequence (O15492 whole entry, looked up): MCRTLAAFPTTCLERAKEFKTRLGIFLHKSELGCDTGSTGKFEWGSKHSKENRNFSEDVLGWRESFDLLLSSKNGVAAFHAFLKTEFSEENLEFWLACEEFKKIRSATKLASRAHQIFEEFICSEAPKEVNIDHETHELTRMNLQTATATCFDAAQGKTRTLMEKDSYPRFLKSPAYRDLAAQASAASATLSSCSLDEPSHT
Target sequence (P09471 whole entry, looked up): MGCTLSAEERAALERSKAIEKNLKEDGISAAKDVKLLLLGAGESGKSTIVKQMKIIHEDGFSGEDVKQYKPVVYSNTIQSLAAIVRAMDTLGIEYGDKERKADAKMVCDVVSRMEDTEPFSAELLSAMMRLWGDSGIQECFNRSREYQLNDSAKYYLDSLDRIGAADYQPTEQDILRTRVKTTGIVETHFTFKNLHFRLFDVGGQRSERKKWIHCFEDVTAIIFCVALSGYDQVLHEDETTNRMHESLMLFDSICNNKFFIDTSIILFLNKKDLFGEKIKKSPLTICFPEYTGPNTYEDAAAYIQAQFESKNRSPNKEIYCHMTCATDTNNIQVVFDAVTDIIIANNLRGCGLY
Insulin prom inh: inhibitors of insulin promoter-driven GFP, primary screen, imaging, TRM-6 cells (human fetal islet line), eGFP reporter, cell count. reporter expression induced with tamoxifen. inhibition, % at 2 µM. hit rate 0.9% among 130,000. AID 1273, 2008;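 active means inhibition above the mean plus 3 SD, with well images judged a real hit on visual review, cut at about 60% in these data, passing the limit was not always enough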
HSV augment: enhancers of HSV replication in host cells, fold increase, host cell viability; HSV replication augmentation in cells; AID 1956, 2009; maximum fold increase; hit rate 0.005% among 220,000;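 active means peak rise of 1.5-fold or more in the series; tested in PC3 cells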;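 further: first round at 10 µM; read as green reporter fluorescence; hits show the peak of a series up to 25 µM; 1 = signal of infected wells without compound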
PKD1 inh: inhibitors of human PKD1 kinase, biochemical, fluorescence polarization; Serine/threonine-protein kinase D1 (Homo sapiens), Q15139; PKD1 kinase fluorescence polarization assay; inhibition, %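 (about 10 µM by stock and volumes)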; hit rate 0.056% among 200,000; AID 797, 2007;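 active means inhibition of 50% or more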;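 further: controls were vehicle for no effect and a reference inhibitor for full effect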
GALR2 agonist: GALR2 receptor agonists, primary screen, cell-based | activation, %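 (tested at 5 µM)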 | GALR2-expressing cells, agonist activation read-out | hit rate 0.48% among 140,000 | Galanin receptor type 2 (Homo sapiens), O43603;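 active means above mean plus 3 SD of all compounds, about 5% in these data, not always enough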;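 further: 0% = vehicle buffer wells and 100% = reference agonist at full effect; tested in CHO reporter cells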
Target sequence (O43603 whole entry, looked up): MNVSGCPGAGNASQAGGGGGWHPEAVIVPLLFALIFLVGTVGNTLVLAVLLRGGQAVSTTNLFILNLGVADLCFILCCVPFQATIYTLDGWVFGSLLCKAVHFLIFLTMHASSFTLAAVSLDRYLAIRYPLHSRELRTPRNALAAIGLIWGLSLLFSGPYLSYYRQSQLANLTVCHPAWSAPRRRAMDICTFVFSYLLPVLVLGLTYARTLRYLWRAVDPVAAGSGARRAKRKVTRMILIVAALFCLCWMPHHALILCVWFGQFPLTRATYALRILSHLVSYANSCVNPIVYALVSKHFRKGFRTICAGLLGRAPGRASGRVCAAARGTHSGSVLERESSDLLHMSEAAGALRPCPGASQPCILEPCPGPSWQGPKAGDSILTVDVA
Insulin prom inh cell count: recorded beside Insulin prom inh, whose call it bears; normalized cell count, %; measured here: cell count, toxicity; reference of the scale not given here;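 cells exposed to compound for 48 h; stained nuclei by imaging scaled within each plate; lower means fewer cells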
HSV augment primary fold: recorded beside HSV augment, whose call it bears; fold increase; compound at 10 µM; measured here: primary screen fold increase 10 uM; tested in PC3 cells;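 GFP signal in the first replicate; 1 = infected wells without compound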
Starred values were filed as active, the others as inactive; i = inactive; nt = not tested or not shown.

SMILES	RGS16-Gao	Insulin prom inh	Insulin prom inh cell count	HSV augment	HSV augment primary fold	PKD1 inh	GALR2 agonist
Cc1ccc(OCCC(=O)OCC(=O)C(C)(C)C)cc1	103	23	125	i	1	12	-2.3
Cc1csc(NC(=O)CSc2nnc(-c3ccoc3C)n2CCc2ccccc2)n1	98	nt	nt	i	0.98	3	-2.2
C/C(O)=C/c1nc2ccccc2[nH]c1=O	93	3	110	i	1.1	4	-1.7
COc1ccc(C(=O)NN/C(C)=C/C(=O)C(F)(F)C(F)(F)C(F)(F)F)cc1	99	50	74	i	0.89	1	-2.1
O=C(Cn1cnc2c(nnn2-c2ccc(F)cc2)c1=O)NCC1CCCO1 (stereo not drawn)	106	-356	98	i	1.1	-7	-1.2
Cc1ccc(S(=O)(=O)NNC(=O)C2COc3ccccc3O2)cc1C (stereo not drawn)	100	-25	170	i	0.93	9	nt
CCOc1ncccc1C(=O)NCc1ccccc1Cl	108	50	158	i	0.99	11	nt
O=C(COC(=O)c1cccc(C(=O)OCC(=O)NC2CC2)n1)NC1CC1	101	nt	nt	i	1	0	nt
Cc1ccc(C2NC(=NCc3ccccc3)Nc3nc(C)cc(=O)n32)cc1 (stereo not drawn)	92	nt	nt	i	0.89	nt	nt
Cc1sc(NC(=O)CN(Cc2ccccc2)C(=O)C(C)C)c(C(N)=O)c1C	108	23	81	i	0.95	2	-1.1
CCN(CC)CCCn1c(=S)[nH]c2cc(C(=O)OC)ccc2c1=O	104	-28	107	i	0.84	-3	-0.2
COc1ccc(/C=N/NS(=O)(=O)c2ccc(NC(C)=O)cc2)cc1	99	nt	nt	i	1	nt	nt
Clc1ccc(-n2nnnc2-c2cnc(-c3ccccn3)nc2-c2cccs2)cc1	nt	-383	65	i	0.83	-5	-2.7
Cc1cccc2cc(COC(=O)C3CCCO3)c(=O)[nH]c12 (stereo not drawn)	98	nt	nt	i	1	-11	-0.8
COC(=O)c1c(NC(=O)c2ccc(C)cc2)sc(Cc2ccccc2)c1C	103	nt	nt	i	1	13	-1.1
COCCCn1c(=S)[nH]c2ncccc2c1=O	100	0	84	i	1	-4	-1.1
CCOC(=O)C1=C(C)NC(=O)NC1c1ccc(OCC(=O)N2CCCCC2)cc1 (stereo not drawn)	102	nt	nt	i	0.96	-10	0.2
O=C(C1CCC(N2C(=O)C3CC=CCC3C2=O)CC1)N1CCCCC1 (stereo not drawn)	397	1	79	i	0.98	-5	0.2
COc1ccc(C2N(C(=O)N3CCOCC3)CCN2S(=O)(=O)c2ccc(C)cc2)cc1 (stereo not drawn)	103	23	184	i	1	1	-2.1
COC(=O)CNC(=O)C(C)(C)Oc1ccc(Cl)cc1	104	13	112	i	0.87	-4	-0.1
CC(=O)N1CCN(c2ccc(NC(=O)/C=C/c3ccccc3)cc2)CC1	97	nt	nt	i	1.1	-10	nt
COC(=O)c1cc2c(ccn2-c2ccc(F)cc2)n1CC(=O)N1CCN(C(=O)c2ccco2)CC1	100	33	87	i	0.51	11	-1.6
O=C(Cc1csc(NC(=O)c2ccc(F)cc2)n1)NO	100	22	89	i	1	6	nt
O=C(CSc1nnnn1-c1ccccc1)NCc1cccs1	82	-11	228	i	0.92	-10	-1.4
O=C(CC(c1ccccc1)c1ccco1)Nc1nccs1 (stereo not drawn)	116	-36	106	i	0.88	1	-2.0
CC(C)C(=O)Nc1cccc(NC(=S)NC(=O)c2ccc(Cl)cc2)c1	108	-14	55	i	0.92	-254	-0.5
COc1ccc(CC(=O)N/N=C/C=C/c2ccc3c(c2)OCO3)cc1OC	100	nt	nt	i	0.91	nt	nt
CCN(CC)CCn1c(N)c(S(=O)(=O)c2ccccc2)c2nc3ccccc3nc21	104	nt	nt	i	1.1	nt	nt
O=c1[nH]nc(Cc2ccc3ccccc3n2)c2ccccc12	104	-51	103	i	1	-3	-2.6
CCC1(C)Cc2c(sc3nnn(Cc4ccccc4Cl)c(=O)c23)CO1 (stereo not drawn)	107	37	45	i	0.95	-2	1.2
OC(CNCCc1ccc(Cl)cc1)COc1ccc2ccccc2c1 (stereo not drawn)	97	nt	nt	i	0.97	-4	nt
CCCc1cc(-c2[nH]ncc2-c2ccc3c(c2)OCCCO3)c(O)cc1OC	96	30	109	i	0.83	-1	0.1
CC(OC(=O)C1CCCO1)C(=O)NC1CCCC1 (stereo not drawn)	107	nt	nt	i	0.89	4	-1.6
COc1ccc(Br)c(/C=N/NC(=O)COc2ccc(-c3ccccc3)cc2)c1	99	33	100	i	1.1	3	-1.4
O=C(NC1CCCc2ccccc21)C1CCN(S(=O)(=O)c2ccccc2F)CC1 (stereo not drawn)	106	0	44	i	0.97	-3	0.1
CCCCc1ccc(N=N/C(C(=O)Nc2ccccc2OC)=C(/C)O)cc1	100	nt	nt	i	1.2	-8	-2.5
FC(c1nc2ccccc2[nH]1)C(F)(F)F (stereo not drawn)	105	nt	nt	i	1.1	-6	nt
CN(C)c1ccc(C2N(C(=O)N3CCOCC3)CCN2S(=O)(=O)c2ccccc2)cc1 (stereo not drawn)	99	nt	nt	i	0.91	3	-2.0
O=C(O)c1ccccc1Sc1c([N+](=O)[O-])cc(C(F)(F)F)cc1[N+](=O)[O-]	114	73*	127*	i	0.91	-4	nt
CCO/N=C/C1=C(O)C(C(=O)OC)C(C)(C)CC1=O (stereo not drawn)	102	21	121	i	1	2	nt

A draw from above in order of heavy-atom count, smallest number first.
SMILES	RGS16-Gao	Insulin prom inh	Insulin prom inh cell count	HSV augment	HSV augment primary fold	PKD1 inh	GALR2 agonist
CC(OC(=O)C1CCCO1)C(=O)NC1CCCC1 (stereo not drawn)	107	nt	nt	i	0.89	4	-1.6
CCO/N=C/C1=C(O)C(C(=O)OC)C(C)(C)CC1=O (stereo not drawn)	102	21	121	i	1	2	nt
CCN(CC)CCn1c(N)c(S(=O)(=O)c2ccccc2)c2nc3ccccc3nc21	104	nt	nt	i	1.1	nt	nt

The results go on:
SMILES	RGS16-Gao	Insulin prom inh	Insulin prom inh cell count	HSV augment	HSV augment primary fold	PKD1 inh	GALR2 agonist
Cc1ccc(CN2CCS(=O)(=O)CC2)o1	102	27	72	i	0.9	-4	nt
COc1ccc(CCNC(=O)C(=O)NCC2CCNCC2)cc1OC	88	nt	nt	i	1	nt	nt
Cc1cccc(CN2CCN(Cc3nc4c(s3)CCCC4)CC2CCO)n1 (stereo not drawn)	100	nt	nt	i	1.2	-3	nt
O=C(O)C1CCN(c2ccccc2[N+](=O)[O-])CC1	101	nt	nt	i	1	-6	nt
NN1C(=O)c2cccc3c(C(=O)O)ccc(c23)C1=O	100	nt	nt	i	1.1	-1	0.1
Cc1ccc2c(C)c(C(=O)Nc3c(C)n(C)n(-c4ccccc4)c3=O)oc2c1	102	-3	129	i	1	-10	-0.3
CCn1cc(C(=O)O)c(=O)c2cc(F)c(N3CCN(C(=S)NC(=O)c4ccc(Br)cc4)CC3)cc21	97	nt	nt	i	0.85	6	nt
CC(=O)N1CCc2cc(S(=O)(=O)NC(Cc3ccccc3)C(=O)Nc3cc(C)ccn3)ccc21 (stereo not drawn)	940	1	103	i	1.1	-4	-2.1
C=CCn1c(SCc2nc3sc(C(=O)O)c(C)c3c(=O)[nH]2)nnc1-c1ccc(C(C)(C)C)cc1	99	nt	nt	i	1.1	nt	nt
COc1cccc(-c2nn(-c3ccccc3)cc2/C=C\C(=O)c2cccs2)c1	96	54	46	i	0.79	-24	-0.1
O=C(NNc1ccccc1[N+](=O)[O-])Nc1ccc(Cl)c(Cl)c1	112	24	106	i	0.97	2	-1.5
COCCCNC(=O)CSc1ccsc1[N+](=O)[O-]	94	nt	nt	i	1	-7	nt
COC(=O)CNC(=O)c1ccccc1F	110	-3	139	i	0.86	-1	-3.3
COc1ccc(C(=O)NCC2CCCO2)cc1OC (stereo not drawn)	110	nt	nt	i	0.95	nt	nt
CCOC(=O)c1ccc(NC(=O)c2cccc(C)c2[N+](=O)[O-])cc1	94	nt	nt	i	1.1	-1	nt
Cc1cccc(N2CCN(Cc3cnc(Cl)s3)CC2C)c1 (stereo not drawn)	102	nt	nt	i	1.1	-4	nt
COc1ccc(-c2cc([C@H]3[C@@H]4C=CCC[C@@]4(C)C(=O)N3Cc3ccccc3)ccc2F)cc1OC	96	nt	nt	i	0.92	nt	nt
CCC(=O)Nc1c(S(=O)(=O)c2ccc(C)cc2)c2nc3ccccc3nc2n1C(C)c1ccccc1 (stereo not drawn)	118	nt	nt	i	0.98	2	1.2
O=C(NC(Nc1nc2ccc([N+](=O)[O-])cc2s1)(C(F)(F)F)C(F)(F)F)c1cccnc1	103	-3	115	i	0.92	6	-0.7
CN(C)C(=O)c1nc2ccc(Cl)cn2c1CNCc1ccccc1OC(F)(F)F	106	nt	nt	i	0.98	6	nt
COc1cccc(C2=CC(c3ccc(OC)c(OC)c3)NC(=S)N2)c1 (stereo not drawn)	98	nt	nt	i	1.1	nt	nt
CC1CCCC(C)N1C(=O)COC(=O)c1ccc2c(c1)OCO2 (stereo not drawn)	56	nt	nt	i	0.96	-3	-1.8
Cn1ccnc1SCc1cn2cc(Br)ccc2n1	98	nt	nt	i	1	1	-2.4
CCc1cc2c(=O)c(-c3cscn3)coc2cc1O	97	nt	nt	nt	nt	-7	-1.4
Cc1sc2c(c1C)c(=O)n(-c1ccccc1)c(=O)n2CC(=O)NCC1CCCO1 (stereo not drawn)	102	nt	nt	i	0.98	1	nt
Cc1cccc(NC(=S)N2CCOCC2)c1C	97	-50	63	i	0.85	-11	-1.3
CCOC(=O)c1ccc(N2CCOCC2)c(NC(=O)COCC(=O)O)c1	102	nt	nt	i	0.99	nt	nt
O=C(NCc1nc2ccccc2[nH]1)C1=C[C@@H](c2ccc3c(c2)OCO3)C[C@@H](OCc2ccc(CO)cc2)O1	100	nt	nt	i	0.99	nt	nt
Cc1cc(C(=O)CSc2nc(N)cc(N)n2)c(C)n1CCc1ccc(F)cc1	100	nt	nt	i	0.89	-7	-0.1
CCOc1ncccc1C(=O)OCC(=O)c1c(N)n(C)c(=O)n(C)c1=O	104	35	110	i	0.95	14	-1.4
CCOC(=O)c1ccc(NC(=S)N2CCSC2c2ccc(Cl)cc2)cc1 (stereo not drawn)	80	nt	nt	i	0.99	4	8.8*
CC1Oc2ccccc2N(CC(=O)NCc2cccs2)C1=O (stereo not drawn)	115	nt	nt	i	1.1	-5	-0.4
Cc1ccc(C)c(N2C(=O)c3cc(N4CCOCC4)c([N+](=O)[O-])cc3C2=O)c1	99	28	117	i	0.97	-3	-1.5
COc1ccc(N2C(=O)c3ccccc3NC23CCCCC3)cc1	108	-64	138	i	0.88	12	0.0
Cc1ccc(S(=O)(=O)Nc2ccccc2-c2ccccc2)cc1	73	-132	17	i	0.54	15	0.0
N#Cc1c(N)nc2c(c1-c1ccncc1)CCCCC2	37	-29	101	i	0.87	-5	1.4
COc1cccc(/C=C/C(=O)OCC(=O)NCC2CCCO2)c1OC (stereo not drawn)	152	nt	nt	i	0.92	-9	-1.9
CN1c2cccc3cccc(c23)N(C)C1c1cccs1	102	-83	125	i	0.94	3	-3.0
CCC(Oc1nc2ccccc2nc1-c1ccccc1NC(C)=O)C(=O)c1ccccc1 (stereo not drawn)	101	-20	109	i	0.83	2	-0.6
Cc1cccc(OCCNc2ccc(C(F)(F)F)cc2[N+](=O)[O-])c1	109	nt	nt	i	0.95	-6	-1.4
CC1CCN(CC(=O)N2CCCc3c2c(=O)oc2ccc(OCc4ccccc4)cc32)CC1	93	nt	nt	i	0.96	0	0.1
O=C(Nc1nc2c(s1)CCCC2)Oc1ccccc1	85	-55	80	i	1	-3	-1.9
C#Cc1ccc([C@@H]2C=C(C(=O)NC3CC3)O[C@H](OCCCCO)C2)cc1	109	nt	nt	i	0.77	nt	nt

4 entries from above, in markdown:
| Molecule | RGS16-Gao | Insulin prom inh | Insulin prom inh cell count | HSV augment | HSV augment primary fold | PKD1 inh | GALR2 agonist |
| --- | --- | --- | --- | --- | --- | --- | --- |
| COc1ccc(N2C(=O)c3ccccc3NC23CCCCC3)cc1 | 108 | -64 | 138 | i | 0.88 | 12 | 0.0 |
| Cc1ccc(S(=O)(=O)Nc2ccccc2-c2ccccc2)cc1 | 73 | -132 | 17 | i | 0.54 | 15 | 0.0 |
| N#Cc1c(N)nc2c(c1-c1ccncc1)CCCCC2 | 37 | -29 | 101 | i | 0.87 | -5 | 1.4 |
| COc1cccc(/C=C/C(=O)OCC(=O)NCC2CCCO2)c1OC (stereo not drawn) | 152 | nt | nt | i | 0.92 | -9 | -1.9 |
